Bioassay records (PubChem)
NPYLR7 ag – agonists of mosquito NPYLR7 receptor, primary screen, cell-based, Aedes aegypti, calcium fluorescence, mosquito biting behavior; Aedes aegypti neuropeptide Y-like receptor 7 (NPYLR7); HEK293T NPYLR7/Galpha15, GCaMP6s calcium fluorescence; activation, % at 10 µM; actives 0.15% (n = 270,000); in the data active means activation above about 40%;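 further: 0% = vehicle and 100% = reference agonist at the receptor; some compounds past the cut are filed as inactive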
NPYLR7 ag max-min – also measured in NPYLR7 ag; calls as there; activation, %; measured here: Max-Min RFU normalised activation; some inactives read as strong as hits;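 span of the calcium signal over five minutes; 0% = vehicle and 100% = native peptide agonist; compound fluorescence can raise it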
The depositor's hits bear a star; & = joins results of further samples. An excerpt. The share of hits here may be higher or lower than overall.

SMILES,NPYLR7 ag,NPYLR7 ag max-min
C=Cc1ccc(Cn2c(C)c(C(=O)NCCC#N)sc2=O)cc1,-2,2
COCCNc1cc(C(C)(C)C)nc2c(-c3ccc(Cl)cc3)cnn12,2,3
CCN(CC)S(=O)(=O)c1ccc(CN2C(=O)C3(CC(=O)N(Cc4csc(C)n4)C3=O)c3ccccc32)cc1 (centres undefined),-22,-25
Cc1ccc(Nc2nc(NCCN3CCOCC3)nc3nccnc23)c(C)c1,3,2
O=c1[nH]cccc1-c1cnc2ccccc2c1,14,-2
CCCCCCCCCCCCC/C=C/[C@@H](O)[C@H](CO)NC(C)=O,-12,-17
CCC(C)(C)C(=O)N1CCC(CO)(CCOc2ccccc2)CC1,7,5
COc1cc(C2CC(c3ccccc3)=Nc3ncnn32)cc(OC)c1OC (centres undefined),12,11
CC1(C)O[C@@H]2C[C@@](OCc3cccc(F)c3)(C(=O)NCCN3CCOCC3)CC(OCc3ccccc3C#N)[C@@H]2O1 (some centres undefined),21,9
O=C(Nc1nnc(C2CCCCC2)s1)N1CC(O)C(N2CCCC2)C1 (centres undefined),3,-3
O=C(CCC1CCCC1)N1CCN(C(c2ccc(Cl)cc2)c2ccc(Cl)cc2)CC1,20,7
CS(=O)(=O)c1ccc(N2CCN(C(=O)CC3COCCN3)CC2)c(F)c1 (centres undefined),5,2
O[C@H]1C[C@@H]2C[C@H](c3ccccn3)OC[C@]2(O)[C@@H]1N1CCN(c2ncccn2)CC1,2,1
O=C1Nc2ccccc2C12OCC1(CO2)CC2C=CC1C2 (centres undefined),2,-1
O=C(NC1CC1)C1CCCN1C(=O)C1(c2cccc(Cl)c2)CCC1 (centres undefined),7,0

Brought forward from above: 3 entries; new compounds follow.
SMILES,NPYLR7 ag,NPYLR7 ag max-min
O[C@H]1C[C@@H]2C[C@H](c3ccccn3)OC[C@]2(O)[C@@H]1N1CCN(c2ncccn2)CC1,2,1
O=C1Nc2ccccc2C12OCC1(CO2)CC2C=CC1C2 (centres undefined),2,-1
O=C(NC1CC1)C1CCCN1C(=O)C1(c2cccc(Cl)c2)CCC1 (centres undefined),7,0
Cc1cc(CNc2ccc3nc(C4CC4)sc3c2)no1,-2,-2
O=C1S/C(=C/C=C/c2ccccc2)C(=O)N1c1ccccc1,0,-2
Cc1nn(Cc2ccccc2)c(Cl)c1CNC1(CO)CCOCC1,-1,-8
O=C(NCc1ccncc1)c1ccc(CSc2ccc3ccccc3n2)cc1,-10,-16
CC(NC=O)c1nc2ccccc2n1CCOc1ccc(Cl)cc1 (centres undefined),-4,-2
O=C(c1ccc(Cl)cc1)N(Cc1c(-c2ccccc2)noc1N1CCCC1)CC1CCCO1 (centres undefined),6,9
Cc1nc(NCCNC(=O)Nc2cccc(C(F)(F)F)c2)cc(N2CCOCC2)n1,-3,-4
CC(Sc1ncnc2sccc12)C(N)=O (centres undefined),11,13
CCn1ccnc1CNC(=O)c1cc(OC)ccc1OC1CCN(C(=O)C2CC2)CC1,2,-4
COCCN(CC(=O)Nc1nc(CC(=O)NCCc2ccccn2)cs1)C(=O)c1ccco1,-1,15
CCOc1ccc(CN(C)Cn2[nH]c(-c3cccs3)nc2=S)cc1,-16&9,-17&2
CC(=O)N1CCC(C(=O)N2CCC3(CCCCC3)C2)CC1,2,5
Cc1ccc(Cl)cc1Nc1ncccc1C(=O)N[C@@H](Cc1c[nH]c2ccccc12)C(N)=O,-11,-16
Cc1ccc(Cl)cc1-n1c(SCc2nc(C(=O)N[C@H]3CCCCNC3=O)cs2)nnc1-c1ccccc1Cl,-11,-19
CC(C)CNC(=O)C1(C)CCN1C(=O)CCc1cccs1 (centres undefined),6,4
C=CCn1c(=O)c2c(nc3n2CC(C)CN3c2cccc(Cl)c2)n(C)c1=O (centres undefined),3,8
Cn1c(=O)[nH]cc(CC(=O)N2CCCC(Nc3ccc(F)c(F)c3)C2)c1=O (centres undefined),5,4
O=C(c1cc(Cn2ccc3ccccc32)[nH]n1)N1CCCCO1,10,8
Cc1cc(C(=O)C(C#N)c2ncc(C(F)(F)F)cc2Cl)c(C)n1-c1cccnc1 (centres undefined),5,5
CCN(CC)C(=O)Oc1ccc2c(ccn2Cc2cccc(C)c2F)c1-c1ccc(OC)c(OC)c1,5,3
Cn1cc(CN2CCOCC2)c(-c2ccc3c(c2)OCCO3)n1,-1&14,-1&7
O=C1CN(C(=O)c2cccc(C(F)(F)F)c2)CC(O)CN1Cc1cccs1 (centres undefined),5,6
Cc1nc(Nc2ccc(S(N)(=O)=O)cc2)oc1C,-1,-3
CCCCN(C)c1c(C)nc2ccc(C(=O)N(C)Cc3ccco3)cn12,-5,-8
Cc1c(C(=O)N2CCCC2C2CCCN2Cc2ccccc2)[nH]c2c1C(=O)CCC2 (centres undefined),0,14
CCCCc1nc(N2CCCN(C(=O)Nc3ccccc3OC)CC2)c2c(-c3ccccc3)noc2n1,13,2
COc1ccc(C)cc1S(=O)(=O)N1CCCC(c2nnc(COc3ccccc3)o2)C1 (centres undefined),-9,-10
Cn1ccc(C(=O)NC2(c3ccc(Cl)cc3)CCC2)cc1=O,-4,-8
Cc1cccc(C)c1NC(=O)N1CCC2(CC1)C(=O)N(CC(=O)Nc1cccc(Cl)c1)CN2c1ccccc1,13,12
O=C(Nc1cc(Cl)cc(Cl)c1)C1CCCN1C(=O)c1cccnc1 (centres undefined),1,-3
CCC(C)C(=O)N1CCN(c2cc(S(=O)(=O)N(CC)CC)ccc2OC)CC1 (centres undefined),1,-3
CC1(C)O[C@@H]2C[C@@](OCc3ccc(C#N)cc3)(C(=O)NCCCn3ccnc3)CC(OCc3ccccc3F)[C@@H]2O1 (some centres undefined),12,18
Cc1cccn2cc(C(=O)O)nc12,-7,-9
CC(C)CN(C(=S)NC1CC2CCC1C2)C1CCN(C)CC1 (centres undefined),2,8
Cc1c(Br)c2ccccc2n1CC(=O)NCC1CN2CCCC2CO1 (centres undefined),1,-4
O=C(c1scc2c1CCCC2)N1CCCC(O)(CO)C1 (centres undefined),3,0
CC(C)CNc1nc(CN2CCOCC2)nc2scc(-c3ccccc3)c12,-4,-5
COc1ccc(-c2nn(CCC(=O)O)cc2/C=C/C(=O)O)cc1OC,0,-1
CCc1nc(C)c(C(=O)N(C)Cc2cnn(-c3ccc(F)cc3)c2)o1,-1,-2
O=C(N[C@@H](Cc1ccccc1)c1nc2ccccc2[nH]1)C1CCC1,-2,-1
CCOC(=O)C1=C(O)/C(=C\c2cccc(C)c2O)SC1=Nc1cccc(F)c1,10,7
CCOc1ccc(NC(=O)NCC2CCN(c3nc(Cc4cccc(OC)c4)ns3)CC2)cc1,-2,9
COc1ccc(CCOc2nc(-c3cccc(F)c3)n(-c3ccc(NC(=O)c4cccc([N+](=O)[O-])c4)cc3)n2)cc1,-2,3
O=c1c2c3n(c4cc(Cl)c([N+](=O)[O-])cc4c-2nn1-c1ccccc1)CCC3,-12,-14
Cc1cccc(-c2ccc(NC(=O)C3CCN(C(=O)CC4CCCC4)CC3)cc2)c1,2,-1

(more compounds)
Structure,NPYLR7 ag,NPYLR7 ag max-min
CCCCc1ccc(N=Cc2nc(-c3ccc(Br)cc3)oc2O)cc1,1,2
CCc1ccc(N2CCCn3c2nc2c3c(=O)n(CC(=O)OCc3ccccc3)c(=O)n2C)cc1,2,9
CCN(CC)C(=O)Oc1ccc2c(ccn2Cc2cc(F)c(F)c(F)c2F)c1-c1cc(F)cc(F)c1,-8,-9
COc1cccc2sc(N(Cc3cccnc3)C(C)=O)nc12,-8,-3
O=C(Nc1ccccc1)OCC(CN1CCCCC1)OC(=O)Nc1ccccc1 (centres undefined),0,0
NC(=O)Nc1ccc2c(c1)OCCO2,-1,0
COc1cc(C)ccc1S(=O)(=O)Nc1ccccc1C(=O)NCCc1ccc(F)cc1,-2,9
CCC(CC)C(=O)Nc1cc(-c2cn3nc(OC)ccc3n2)ccc1C,-9,-13
Cc1ccc(N2CC(CNC(=O)CC(C)C)OC2=O)cc1 (centres undefined),3,6
Cc1ccc2nc3c(cc(C#N)c(=N)n3CCCN3CCOCC3)c(=O)n2c1,10,7

Profiles from above. Screens in order: NPYLR7 ag | NPYLR7 ag max-min
Cc1ccc(N2CC(CNC(=O)CC(C)C)OC2=O)cc1 (centres undefined) is listed as 3 | 6
NC(=O)Nc1ccc2c(c1)OCCO2 is listed as -1 | 0

2 records drawn at random from those above:
Structure,NPYLR7 ag,NPYLR7 ag max-min
O=c1[nH]cccc1-c1cnc2ccccc2c1,14,-2
CCC(C)C(=O)N1CCN(c2cc(S(=O)(=O)N(CC)CC)ccc2OC)CC1 (centres undefined),1,-3

The list continues:
Structure,NPYLR7 ag,NPYLR7 ag max-min
Cc1cc(C)c(-c2csc(NC(=O)C(C)S(C)(=O)=O)n2)cc1C (centres undefined),2,2
Cc1ccc(NS(=O)(=O)c2cc3c4c(cccc4c2)C(=O)NC3=O)cc1C,2,2
CCOC(=O)c1cc(-c2cccc(NC(=O)Cc3ccc(OC)cc3)c2)n(-c2ccc(F)cc2)n1,-2,-4
CC(=O)c1ccccc1-c1ccc2c(c1)CC(CNC(=O)c1cccc(-n3cccn3)c1)O2 (centres undefined),5,3
COc1ccc(C2CCCN2CC(=O)N(C)Cc2ccccc2Br)cc1 (centres undefined),-4,-5
CC(=O)OC(C(=O)Nc1ccc(CCNC(=O)NC(C)C)cc1)c1ccccc1 (centres undefined),-7,-12
CCCNC(=O)C1(C)CCN1C(=O)c1sccc1C (centres undefined),4,2
CCOc1ccccc1CN(CC)C(=O)c1cc(=O)[nH]c2ccc(F)cc12,2,-1
O=C(Nc1ccc(-n2cccc2)cc1)C1=COC2=NC(=O)N(Cc3ccccc3)CCN12,0,0
CCN(CC1CCCN(CCc2cccc(OC)c2)C1)C(=O)CN1CCOC1=O (centres undefined),-1,-9

Laid out differently: results already given.
COc1ccc(C2CCCN2CC(=O)N(C)Cc2ccccc2Br)cc1 (centres undefined)
  NPYLR7 ag: -4; NPYLR7 ag max-min: -5

CC(=O)OC(C(=O)Nc1ccc(CCNC(=O)NC(C)C)cc1)c1ccccc1 (centres undefined)
  NPYLR7 ag: -7; NPYLR7 ag max-min: -12

Remaining list, next part:
Structure,NPYLR7 ag,NPYLR7 ag max-min
COCCNCc1nc2scc(-c3cccc(Cl)c3)c2c(=O)[nH]1,-3,-1
COc1ccc(-c2coc3c(C(=O)NCC4CC4)cccc23)c(C)c1,4,23
CCCNC(=O)C1(C)CCCN(CC(=O)c2ccc(C)cc2C)C1 (centres undefined),-6,-4
CC(=NNC(=O)c1cccs1)c1cccc([N+](=O)[O-])c1,-6,-11
COc1ccc(-c2c(C)oc3c(C)c(O)ccc3c2=O)cc1,-2,5
O=C(NCC(=O)N1CCN(c2ccccc2F)CC1)c1ccco1,15,6
O=C(C1CCCC1)N(Cc1ccc(OCc2nc(CO)cs2)cc1)CC1CC1,23,31
Cc1c(C(=O)NCC2CCCO2)cnc2c(-c3cccc(C(F)(F)F)c3)cnn12 (centres undefined),7,15
Cc1sc2nc3n(c(=O)c2c1C)CC/C3=C\c1ccsc1,4,-1
CCc1nn(CCCC(=O)NC(C)C)c(=O)c2cc3occc3n12,10,7
O=C(Cc1c[nH]c(=O)[nH]c1=O)N1CCC1c1ccc(F)cc1 (centres undefined),15,13
COc1ccc(Cl)c2sc(N(Cc3cccnc3)C(=O)c3cccc(F)c3)nc12,11,7
CCCCCCCCCCCCCC(=O)N(Cc1ccc(OC)c(OS(C)(=O)=O)c1)Cc1ccco1,-13,-7
CC(C)c1ccccc1NC(=O)c1cc(=O)c(OCc2ccccc2)c[nH]1,2,-2
OCCN1CCN(Cc2nc(Cc3cccc(C(F)(F)F)c3)no2)CC1,10,8
COc1cccc(C(=O)N2CCN(c3cc(Oc4ccc(Cl)c(C)c4)ncn3)CC2)c1,4,6
O=C(NCCn1cc(SCC(=O)N2CCOCC2)c2ccccc21)c1cccc(C(F)(F)F)c1,-1,-1
COC(=O)CCCNc1nncc(-c2c(OC)cccc2OC)n1,5,3
Cc1ccc(C(=O)N(CC(=O)Nc2nc(CC(=O)NC3CCN(Cc4ccccc4)CC3)cs2)C2CC2)cc1,15,11
COCCOC(=O)C1=C(C)NC2=C(C(=O)CC(c3ccccc3)C2)C1c1ccc([N+](=O)[O-])cc1 (centres undefined),-5,-4
CS(=O)(=O)NCC(=O)NC1CC(=O)N(CCc2ccc(F)cc2)C1 (centres undefined),-2,-3
Cc1csc(SCc2cc(=O)c(OC(=O)c3ccc(OC(C)C)cc3)co2)n1,-12,-4
COc1ccc(-c2cc(C(=O)N3CCN(c4cccc(C(F)(F)F)c4)CC3)n3nc(-c4ccccc4)cc3n2)cc1,9&18,8&18
CN(C(=O)c1ccccc1)c1nccnc1C#N,7,3
O=C1NC(=NS(=O)(=O)c2ccccc2)SC1=Cc1cc([N+](=O)[O-])ccc1O,61*,45*
Cc1cc(Nc2ccc3c(n2)C(=O)N([C@H](C)C(=O)NCc2ccccc2)C3)n(C)n1,3,-1
CCOC(=O)Cc1c(C)c2c(C)[nH]nc2oc1=O,-4,-6
O=C(CCc1ncc(-c2ccc(Cl)cc2Cl)o1)N1CCN(S(=O)(=O)c2ccccc2)CC1,3,-4
CN(C)c1ccc(/C=C2\SC(=S)N(NC(=O)c3cccc(Cl)c3)C2=O)cc1,-9,-18
CC1=NN(C(=O)C(C)C)C(O)(c2ccc(Br)cc2)C1 (centres undefined),-2,6
O=C(NCc1ccccc1)c1cnn2c(C(F)(F)F)cc(-c3cccs3)nc12,-6,-6
COC(=O)C(=O)N1CCN(c2nc3nccc(-c4cccc(C(F)(F)F)c4)n3n2)CC1,25,15
